High-throughput results from PubChem.
Yeast UUG start: yeast start codon fidelity modulation; S. cerevisiae UUG-firefly luciferase reporter, luminescence/redox ratio; activity score, % at 18.7 µM; 350,000 tested, 0.13% active; AID 602363;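 active = replicate mean at a twofold rise or more, about +100% in these data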;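 note: firefly luciferase made from a UUG start codon reports start codon fidelity; reporter light over untreated wells divided by growth signal over untreated wells; some hits fall short of that in this replicate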
An asterisk follows results filed as active. Some of the compounds tested (hit frequency here may not be typical).

CNC[C@@H]1Oc2c(NS(=O)(=O)c3ccc(Cl)cc3)cccc2C(=O)N([C@H](C)CO)C[C@H]1C
- Yeast UUG start = 11.1
C[C@H](CO)N1C[C@H](C)[C@H](CN(C)S(C)(=O)=O)Oc2ccc(NC(=O)NC3CCCCC3)cc2C1=O
- Yeast UUG start = 9.5
CN(C[C@H]1N[C@@H](CO)[C@H]1c1ccc(-c2ccc(F)cc2)cc1)C(=O)C1CCC1
- Yeast UUG start = -12.8
C[C@H]1CN([C@@H](C)CO)C(=O)c2cccc(NC(=O)c3ccc(-c4nccs4)cc3)c2O[C@@H]1CN(C)Cc1ccc(C(F)(F)F)cc1
- Yeast UUG start = -5.9
Cc1cc(C(=O)Nc2cccc3c2O[C@H](CN(C)Cc2ccncc2)[C@@H](C)CN([C@H](C)CO)C3=O)n(C)n1
- Yeast UUG start = -9.0
CNC[C@@H]1Oc2c(NC(=O)NC(C)C)cccc2C(=O)N([C@H](C)CO)C[C@@H]1C
- Yeast UUG start = -1.6
CO[C@@H]1CN(C)C(=O)c2cc(NC(=O)C3CCCC3)ccc2OC[C@H](C)N(CC2CC2)C[C@H]1C
- Yeast UUG start = -8.3
O=C(C[C@@H]1CC[C@@H]2[C@H](COC[C@H](O)CN2CC2CCCCC2)O1)NCc1ccc(Cl)cc1
- Yeast UUG start = -4.5
O=C(NC[C@@H]1[C@@H](c2ccccc2)[C@@H](CO)N1CC1CCCC1)c1ccncc1
- Yeast UUG start = -12.6
Cc1ccccc1-c1ccc([C@@H]2[C@H](CO)N3CCCCN(C(=O)Nc4ccc(F)cc4)C[C@@H]23)cc1
- Yeast UUG start = 19.8

O=C(C[C@@H]1CC[C@H]2[C@@H](COC[C@@H](O)CN2Cc2cccc(F)c2)O1)NCCc1ccncc1
- Yeast UUG start = -18.3
CCS(=O)(=O)N1CCCCN2[C@H](CO)[C@@H](c3ccc(-c4ccccc4F)cc3)[C@@H]2C1
- Yeast UUG start = 9.2
COc1ccc(S(=O)(=O)N2C[C@H](O)COC[C@H]3O[C@H](CC(=O)NCCCN4CCOCC4)CC[C@@H]32)cc1
- Yeast UUG start = -2.6
C[C@@H]1CN([C@@H](C)CO)C(=O)c2cccc(NS(=O)(=O)c3ccc(F)cc3)c2O[C@@H]1CN(C)Cc1ccncc1
- Yeast UUG start = -9.5
CC(C)NC(=O)Nc1cccc2c1O[C@H](CN(C)Cc1ccc(Oc3ccccc3)cc1)[C@H](C)CN([C@@H](C)CO)C2=O
- Yeast UUG start = 8.3
CO[C@@H]1CN(C)C(=O)c2cc(NC(=O)Nc3cc(F)ccc3F)ccc2OC[C@H](C)N(C)C[C@@H]1C
- Yeast UUG start = 10.7
CCCC(=O)Nc1ccc2c(c1)C(=O)N(C)C[C@H](OC)[C@H](C)CN(CCc1ccccc1)[C@@H](C)CO2
- Yeast UUG start = 8.8
O=C(C1CCCC1)N1C[C@@H]2[C@H](c3ccccc31)[C@H](CO)N2C(=O)Cc1ccccn1
- Yeast UUG start = -7.0
C[C@H](CO)N1C[C@H](C)[C@@H](CN(C)S(C)(=O)=O)Oc2ccc(NC(=O)NC3CCCCC3)cc2CC1=O
- Yeast UUG start = 0.2
C[C@@H]1CN([C@H](C)CO)C(=O)c2cccc(NC(=O)c3ccc(-c4nccs4)cc3)c2O[C@@H]1CN(C)Cc1ccc2c(c1)OCO2
- Yeast UUG start = -0.4

An excerpt of these results, with bars between the fields:
compound | Yeast UUG start
C[C@@H]1CN([C@@H](C)CO)C(=O)c2cccc(NS(=O)(=O)c3ccc(F)cc3)c2O[C@@H]1CN(C)Cc1ccncc1 | -9.5
CC(C)NC(=O)Nc1cccc2c1O[C@H](CN(C)Cc1ccc(Oc3ccccc3)cc1)[C@H](C)CN([C@@H](C)CO)C2=O | 8.3
CO[C@@H]1CN(C)C(=O)c2cc(NC(=O)Nc3cc(F)ccc3F)ccc2OC[C@H](C)N(C)C[C@@H]1C | 10.7

Additional records
C[C@@H]1CN([C@H](C)CO)C(=O)c2cccc(NC(=O)c3nc4ccccc4s3)c2O[C@H]1CN(C)Cc1ccc(C(F)(F)F)cc1
- Yeast UUG start = -13.1
CCCNC(=O)C[C@@H]1CC[C@H]2[C@H](COc3ccc(NC(=O)Nc4c(C)noc4C)cc3C(=O)N2C)O1
- Yeast UUG start = -0.3
CCCC(=O)Nc1ccc2c(c1)OC[C@@H](C)N(Cc1nccs1)C[C@H](C)[C@@H](OC)CN(C)C2=O
- Yeast UUG start = -8.5
COc1ccc(CN(C)C[C@H]2Oc3c(NC(=O)c4cc(C)nn4C)cccc3C(=O)N([C@H](C)CO)C[C@@H]2C)cc1
- Yeast UUG start = -8.8
C[C@H](CO)N1C[C@H](C)[C@@H](CN(C)Cc2ccc(C(=O)O)cc2)Oc2ccc(NC(=O)CCN3CCOCC3)cc2C1=O
- Yeast UUG start = 0.5
C[C@H]1CN([C@@H](C)CO)C(=O)c2cccc(NC(=O)C3CCOCC3)c2O[C@H]1CN(C)S(=O)(=O)c1cn(C)cn1
- Yeast UUG start = -15.2
CCCC(=O)Nc1ccc2c(c1)C(=O)N(C)[C@H]1CC[C@@H](CC(=O)Nc3cn(C)nc3C)O[C@H]1CO2
- Yeast UUG start = -2.9
COc1cccc(S(=O)(=O)Nc2ccc3c(c2)C(=O)N(C)[C@@H]2CC[C@@H](CC(=O)NCC4CCCCC4)O[C@@H]2CO3)c1
- Yeast UUG start = -9.9
COc1cccc(S(=O)(=O)Nc2ccc3c(c2)C(=O)N(C)[C@H]2CC[C@@H](CC(=O)NCC4CCCCC4)O[C@H]2CO3)c1
- Yeast UUG start = 1.8
C[C@H]1CN([C@@H](C)CO)C(=O)c2cc(NC(=O)Cc3cn(C)c4ccccc34)ccc2O[C@@H]1CN(C)S(=O)(=O)c1cccs1
- Yeast UUG start = -8.5

Two entries from above, tab-delimited:
SMILES	Yeast UUG start
CCCC(=O)Nc1ccc2c(c1)C(=O)N(C)[C@H]1CC[C@@H](CC(=O)Nc3cn(C)nc3C)O[C@H]1CO2	-2.9
COc1cccc(S(=O)(=O)Nc2ccc3c(c2)C(=O)N(C)[C@@H]2CC[C@@H](CC(=O)NCC4CCCCC4)O[C@@H]2CO3)c1	-9.9

New compounds follow
CCN1[C@@H]2c3ccc(-c4ccccc4)c(=O)n3C[C@H]1[C@H](CO)[C@H]2C(=O)Nc1ccccc1
- Yeast UUG start = 2.4
CN(C)C(=O)c1ccc(-c2ccc([C@@H]3[C@H](CO)N4CCCCN(S(C)(=O)=O)C[C@@H]34)cc2)cc1
- Yeast UUG start = 1.6
CO[C@@H]1CN(C)C(=O)c2ccc(NC(=O)C3CCCC3)cc2OC[C@@H](C)N(Cc2cccnc2)C[C@H]1C
- Yeast UUG start = 3.1
CO[C@H]1CN(C)C(=O)c2ccc(NC(=O)C3CC3)cc2OC[C@H](C)N(C(=O)C2CCOCC2)C[C@@H]1C
- Yeast UUG start = -2.4
CCC(=O)N1CCCCN2[C@@H](CO)[C@@H](c3ccc(-c4cccc(C#N)c4)cc3)[C@@H]2C1
- Yeast UUG start = 8.9
Cc1noc(C)c1NC(=O)N(C)C[C@@H]1Oc2ccc(NC(=O)CCCCCC(=O)Nc3ccccc3N)cc2C(=O)N([C@@H](C)CO)C[C@@H]1C
- Yeast UUG start = 3.8
O=C(Nc1ccccc1)N1C[C@H]2[C@@H](c3ccccc31)[C@H](CO)N2C(=O)c1cccnc1
- Yeast UUG start = -8.9
Cc1ccc(S(=O)(=O)Nc2ccc3c(c2)C(=O)N([C@@H](C)CO)C[C@H](C)[C@H](CN(C)C(=O)NC2CCCCC2)O3)cc1
- Yeast UUG start = 4.5
CO[C@H]1CN(C)C(=O)c2cc(NC(=O)C3CCOCC3)ccc2OC[C@@H](C)N(Cc2nccs2)C[C@H]1C
- Yeast UUG start = -3.1
CCS(=O)(=O)Nc1ccc2c(c1)C(=O)N(C)C[C@H](OC)[C@H](C)CN(CC1CCCCC1)[C@H](C)CO2
- Yeast UUG start = -3.2

COc1ccc(C#Cc2ccc([C@H]3[C@H]4CN(S(=O)(=O)c5ccccc5)CCCCN4[C@H]3CO)cc2)cc1
- Yeast UUG start = 32.2
Cn1cnc(S(=O)(=O)N2C[C@H](O)COC[C@@H]3O[C@@H](CC(=O)NCc4cc(F)cc(F)c4)CC[C@H]32)c1
- Yeast UUG start = -8.6
CCN1[C@H](C(=O)NCc2ccccn2)[C@@H](CO)[C@@H]2Cn3c(ccc(C4=CCCC4)c3=O)[C@@H]21
- Yeast UUG start = -18.6
CCC(=O)Nc1ccc2c(c1)OC[C@@H](C)N(Cc1ccccn1)C[C@H](C)[C@H](OC)CN(C)C2=O
- Yeast UUG start = -15.7
O=C(c1cnccn1)N1C[C@H]2[C@@H](c3ccccc31)[C@@H](CO)N2CC1CCCC1
- Yeast UUG start = -6.7
C[C@H]1CN([C@@H](C)CO)C(=O)c2cccc(NC(=O)c3cnccn3)c2O[C@@H]1CN(C)Cc1ccc(-c2ccccc2)cc1
- Yeast UUG start = 1.3
O=C(C[C@@H]1CC[C@H]2[C@@H](COC[C@H](O)CN2C(=O)Nc2ccc(Cl)cc2)O1)NCc1ccncn1
- Yeast UUG start = 3.4
C[C@H](CO)N1C[C@H](C)[C@H](CN(C)Cc2ccc(C(=O)Nc3ccccc3N)cc2)Oc2ccc(NS(=O)(=O)c3ccc(Cl)cc3)cc2C1=O
- Yeast UUG start = 1.3
C/C=C/c1ccc([C@H]2[C@@H](CO)N3CCCCN(S(=O)(=O)c4ccc(OC)cc4)C[C@@H]23)cc1
- Yeast UUG start = 10.5
COC(=O)C[C@@H]1CC[C@@H]2[C@H](COc3ccc(NC(=O)C4CCOCC4)cc3C(=O)N2C)O1
- Yeast UUG start = 6.9

O=C(NCC1CC1)[C@H]1[C@H](CO)[C@H]2Cn3c(ccc(-c4cccc(F)c4)c3=O)[C@H]2N1CC1CC1
- Yeast UUG start = 8.5
COc1cccc(NC(=O)N2[C@@H](CO)[C@@H](c3ccccc3)[C@@H]2CNC(C)C)c1
- Yeast UUG start = -6.7
O=C(Nc1cccc(Cl)c1)N1C[C@H]2[C@@H](c3ccccc31)[C@H](CO)N2Cc1ccccc1Cl
- Yeast UUG start = 0.9
OC[C@@H]1[C@H](c2ccc(-c3ccc(F)cc3)cc2)[C@@H]2CN(Cc3ccccn3)CCCCN12
- Yeast UUG start = -17.1
CCCNC(=O)C[C@@H]1C[C@@H]2c3cc(NC(=O)C4CCC4)ccc3O[C@@H]2[C@H](CO)O1
- Yeast UUG start = -13.9
Cc1noc(C)c1NC(=O)N(C)C[C@@H]1Oc2c(NS(=O)(=O)c3cn(C)cn3)cccc2C(=O)N([C@@H](C)CO)C[C@@H]1C
- Yeast UUG start = 6.1
CO[C@@H]1CN(C)C(=O)c2ccc(NC(=O)c3ccccc3F)cc2OC[C@H](C)N(CC2CCOCC2)C[C@@H]1C
- Yeast UUG start = -1.0
C[C@H](CO)N1C[C@H](C)[C@@H](CN(C)Cc2ccc(Cl)c(Cl)c2)Oc2c(NC(=O)Nc3ccc4c(c3)OCO4)cccc2C1=O
- Yeast UUG start = 0.6

Pulled by structure from the list above:
CCCNC(=O)C[C@@H]1C[C@@H]2c3cc(NC(=O)C4CCC4)ccc3O[C@@H]2[C@H](CO)O1
- Yeast UUG start = -13.9
Cc1noc(C)c1NC(=O)N(C)C[C@@H]1Oc2c(NS(=O)(=O)c3cn(C)cn3)cccc2C(=O)N([C@@H](C)CO)C[C@@H]1C
- Yeast UUG start = 6.1
